EPAC2 ant val = Validation qHTS for antagonist of cAMP-regulated guanine nucleotide exchange factor 4 (EPAC2); Rap guanine nucleotide exchange factor 4 (Homo sapiens), Q8WZA2; EPAC2 Rap1B BODIPY-GDP exchange, fluorescence; Potency, µM (titrated, usually from 112 µM), without a hit: at the top dose activity, negative = inhibition, usual class: inhibitors; actives 1.7% (n = 16,000); active = well fitted inhibition curve with a large enough effect; inconclusive = small, poorly fitted or top-dose-only effect; inactive = no such curve, though single readings can be large or run the other way;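 note: 100% = activation by cAMP agonist control; nearly all actives have a fitted effect of over 40% in size; the record reuses the description of the EPAC1 agonist screen; inactives centre near -10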
Target sequence (Q8WZA2 whole entry, looked up): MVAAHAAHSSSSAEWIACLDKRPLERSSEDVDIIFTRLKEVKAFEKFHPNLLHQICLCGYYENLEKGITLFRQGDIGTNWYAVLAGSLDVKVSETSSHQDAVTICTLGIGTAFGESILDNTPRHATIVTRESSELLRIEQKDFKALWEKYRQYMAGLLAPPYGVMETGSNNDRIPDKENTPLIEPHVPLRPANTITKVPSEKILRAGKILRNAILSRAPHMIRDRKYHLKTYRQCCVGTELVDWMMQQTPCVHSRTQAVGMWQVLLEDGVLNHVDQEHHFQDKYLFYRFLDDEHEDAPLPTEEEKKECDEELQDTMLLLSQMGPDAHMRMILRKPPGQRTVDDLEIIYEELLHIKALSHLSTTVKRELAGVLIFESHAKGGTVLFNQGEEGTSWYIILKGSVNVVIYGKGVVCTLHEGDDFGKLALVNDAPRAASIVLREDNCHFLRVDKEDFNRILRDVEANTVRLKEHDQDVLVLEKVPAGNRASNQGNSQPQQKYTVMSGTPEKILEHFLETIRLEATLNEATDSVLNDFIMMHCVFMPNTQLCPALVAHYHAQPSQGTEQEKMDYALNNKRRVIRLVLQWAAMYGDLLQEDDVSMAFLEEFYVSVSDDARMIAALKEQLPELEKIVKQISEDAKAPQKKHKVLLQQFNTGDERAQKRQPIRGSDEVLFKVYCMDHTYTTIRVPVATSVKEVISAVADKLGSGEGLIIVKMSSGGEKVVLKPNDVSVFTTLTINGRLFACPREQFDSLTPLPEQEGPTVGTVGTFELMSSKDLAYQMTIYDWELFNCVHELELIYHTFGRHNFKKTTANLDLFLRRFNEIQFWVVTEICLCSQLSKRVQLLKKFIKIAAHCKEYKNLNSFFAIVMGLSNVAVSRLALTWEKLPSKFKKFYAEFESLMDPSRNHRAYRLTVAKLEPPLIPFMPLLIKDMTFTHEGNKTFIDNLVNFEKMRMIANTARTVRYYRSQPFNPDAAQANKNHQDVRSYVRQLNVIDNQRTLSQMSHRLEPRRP
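Normalized against a 6.5 mM cAMP agonist control, compounds were tested on 100 nM EPAC2 exchanging Rap1B-bound BODIPY-GDP (250 nM) for 50 uM GDP. Fluorescence drop (ex 480, em 540 nm) was tracked at room temperature over 30 min at 5-min intervals.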
An asterisk follows results filed as active; & = joins results of further samples; ! = a repeat was not active; [ ] = dose if it differs, or a comment. Potency is the fitted concentration of half-maximal effect. An excerpt (hit frequency here may not be typical).

Results for O=C(CCNNC(=O)c1ccncc1)NCc1ccccc1 ?
EPAC2 ant val: -12.9%&-16.1%

How did Cc1ccccc1C(=O)Nc1ccc(C(=O)N2CCCC(O)c3cc(Cl)ccc32)c(C)c1 (centres undefined) do in these assays?
EPAC2 ant val: -1.9%

What do the screens show for `O=C(O)[C@H]1[C@H]2C[C@H]3c4[nH]c5ccccc5c4CCN3C[C@@H]2CC[C@@H]1O`?
EPAC2 ant val: -7.8%

What do the screens show for `CCCNC(C)C(=O)Nc1c(C)csc1C(=O)OC` (centres undefined)?
EPAC2 ant val: -8.6%[56.6 µM]

How did Nc1nnnn1-c1ccccc1 do in these assays?
EPAC2 ant val: 35.3%[activator]

How did OCCN1CCN(CCCN2c3ccccc3Sc3ccc(Cl)cc32)CC1 do in these assays?
EPAC2 ant val: 35.5µM*!

What do the screens show for `Cc1c(NC(=O)c2cccnc2)c(=O)n(-c2ccccc2)n1C`?
EPAC2 ant val: -1.3%[56.6 µM]

What do the screens show for `CC(O)CN(C)C` (centres undefined)?
EPAC2 ant val: 28.5%

How did CC(C(=O)O)c1ccc(C(=O)c2cccs2)cc1 (centres undefined) do in these assays?
EPAC2 ant val: inconclusive

Results for CCN(CC)CCNC(=O)c1cc(Cl)c(N)cc1OC ?
EPAC2 ant val: 0.5%&-12.1%&-15.9%

Results for COc1ccc(C(=O)NCc2ccc(OCCN(C)C)cc2)cc1OC ?
EPAC2 ant val: 9.9%

Results for CC1(C)O[C@@H]2C[C@@H]3[C@H]4C[C@@H](F)C5=CC(=O)C=C[C@]5(C)[C@@]4(F)[C@@H](O)C[C@]3(C)[C@]2(C(=O)CO)O1 ?
EPAC2 ant val: -4.2%

How did Cc1oc(=O)oc1CN1CCN(c2cc3c(cc2F)c(=O)c(C(=O)O)c2n3C(C)S2)CC1 (centres undefined) do in these assays?
EPAC2 ant val: -3.4%

What do the screens show for `CCOC(=O)c1ccc(N)cc1`?
EPAC2 ant val: -15.2%[56.6 µM]

How did O=C1c2c(O)cccc2[C@H]([C@@H]2O[C@H](CO)[C@@H](O)[C@H](O)[C@H]2O)c2cc(CO)cc(O)c21 do in these assays?
EPAC2 ant val: -17.3%

What do the screens show for `CC(=O)NC(Cc1ccccc1)C(=O)O` (centres undefined)?
EPAC2 ant val: 7.5%

How did CN(C)CCOC(C)(c1ccccc1)c1ccccn1 (centres undefined) do in these assays?
EPAC2 ant val: -13.7%&-15.9%&-9.3%

Results for Cc1c(I)c(=O)n(-c2ccccc2)n1C ?
EPAC2 ant val: 3.5%

What do the screens show for `CN1CCOC(c2ccccc2)c2ccccc2C1` (centres undefined)?
EPAC2 ant val: -13.7%

What do the screens show for `CCC[C@H](N[C@@H](C)C(=O)N1[C@@H]2CCCC[C@H]2C[C@H]1C(=O)O)C(=O)OCC`?
EPAC2 ant val: 22.3%

How did CN(C(=O)CCCOc1ccc2[nH]c(=O)ccc2c1)C1CCCCC1 do in these assays?
EPAC2 ant val: 4.8%&1.2%&-18.9%

How did CC(=O)O[C@@]1(C(C)=O)CCC2C3C=C(Cl)C4=CC(=O)C5CC5[C@@]4(C)C3CC[C@]21C (some centres undefined) do in these assays?
EPAC2 ant val: inconclusive

How did CC(=O)c1ccc(S(=O)(=O)NC(=O)NC2CCCCC2)cc1 do in these assays?
EPAC2 ant val: -1.0%&-8.9%

Results for COc1cc(O)c2c(=O)cc(-c3ccc(OC)c(-c4c(O)cc(O)c5c(=O)cc(-c6ccc(O)cc6)oc45)c3)oc2c1 ?
EPAC2 ant val: -7.9%

How did CC1COc2c(N3CCN(C)CC3)c(F)cc3c(=O)c(C(=O)O)cn1c23 (centres undefined) do in these assays?
EPAC2 ant val: 3.4%&4.3%&-9.8%&-6.2%

What do the screens show for `CN1CCN(CCC(=O)N2c3ccccc3Sc3ccc(C(F)(F)F)cc32)CC1`?
EPAC2 ant val: 42.4%

How did CN1CCN(C(c2ccccc2)c2ccccc2)CC1 do in these assays?
EPAC2 ant val: -5.9%[56.6 µM]

What do the screens show for `NC(=O)c1cn(Cc2c(F)cccc2F)nn1`?
EPAC2 ant val: -11.6%&21.1%

What do the screens show for `O=C(O)c1ccc[n+]([O-])c1`?
EPAC2 ant val: -28.6%

What do the screens show for `Cc1cc(-c2ccccc2)nnc1NCCN1CCOCC1`?
EPAC2 ant val: -12.8%&5.1%

What do the screens show for `CCN(CC)CCn1c(=O)c(Cc2ccc(OC)cc2)nc2ccccc21`?
EPAC2 ant val: 29.2%

Results for OC(C#CCN1CCCC1)(c1ccccc1)c1ccccc1 ?
EPAC2 ant val: -0.6%

What do the screens show for `O=C1c2ccc(O)c(O)c2C(=O)c2c(O)ccc(O)c21`?
EPAC2 ant val: -11.3%

What do the screens show for `COCCCOc1cc(C[C@@H](C[C@H](N)[C@@H](O)C[C@H](C(=O)NCC(C)(C)C(N)=O)C(C)C)C(C)C)ccc1OC`?
EPAC2 ant val: 0.3%

What do the screens show for `CC(=O)Nc1ccc(C(=O)O)cc1`?
EPAC2 ant val: -7.9%

How did COc1ccc(/C=C/C(=O)Nc2ccccc2C(=O)O)cc1OC do in these assays?
EPAC2 ant val: -9.4%&17.2%

How did C=CC1=C(C(=O)O)N2C(=O)[C@@H](NC(=O)/C(=N\O)c3csc(N)n3)[C@H]2SC1 (stereo in doubt) do in these assays?
EPAC2 ant val: 5.8%&7.0%

What do the screens show for `O=C(CCN1CCC(c2ccccc2)C1)c1ccc2c(c1)OCCO2` (centres undefined)?
EPAC2 ant val: 1.6%

How did CC12CCC(CC1)C(C)(C)O2 do in these assays?
EPAC2 ant val: 3.2%&-8.5%

How did COC(=O)c1ccc(O)cc1 do in these assays?
EPAC2 ant val: -8.8%

Results for CCC(=O)O ?
EPAC2 ant val: 21.3%

What do the screens show for `CCOC(=O)c1ccc(OCCN2C[C@H](O)[C@@H](O)[C@H](O)[C@H]2CO)cc1`?
EPAC2 ant val: 54.8%[activator]

Results for CC(=O)c1ccc2c(c1)N(CCCN(C)C)c1ccccc1S2 ?
EPAC2 ant val: 1.1%[56.6 µM]

What do the screens show for `CCC1Nc2cc(Cl)c(S(N)(=O)=O)cc2S(=O)(=O)N1` (centres undefined)?
EPAC2 ant val: -6.4%

Results for Cc1cc(NS(=O)(=O)c2ccc(N)cc2)nc(C)n1 ?
EPAC2 ant val: -9.0%

What do the screens show for `O=C(NCCc1c[nH]c2ccccc12)c1cccnc1`?
EPAC2 ant val: -18.2%

What do the screens show for `O=C(O)CNC(=O)c1ccccc1I`?
EPAC2 ant val: 2.2%

Results for Cn1c(=O)c2[nH]c(Br)nc2n(C)c1=O ?
EPAC2 ant val: 4.1%

How did COc1ccc(C(=O)CC(=O)c2ccc(C(C)(C)C)cc2)cc1 do in these assays?
EPAC2 ant val: 2.9%

What do the screens show for `C1CCC(C(CC2CCCCN2)C2CCCCC2)CC1` (centres undefined)?
EPAC2 ant val: -24.6%

What do the screens show for `CCC(C)[C@@H](N)C(=O)O` (some centres undefined)?
EPAC2 ant val: -5.4%&8.2%

What do the screens show for `Cn1c(=O)c2c(ncn2CC2OCCO2)n(C)c1=O`?
EPAC2 ant val: 39.6%

Results for Cc1nc2ccccn2c(=O)c1CCN1CCC(C(=O)c2ccc(F)cc2)CC1 ?
EPAC2 ant val: -9.0%&10.1%

Results for Cc1c(C(=O)NCCO)[n+](=O)c2ccccc2n1[O-] ?
EPAC2 ant val: -11.4%

How did O=c1cc(-c2ccc(O)cc2)oc2cc(OC3OC(CO)C(O)C(O)[C@H]3O[C@@H]3OC[C@@](O)(CO)C3O)cc(O)c12 (some centres undefined) do in these assays?
EPAC2 ant val: -5.8%

Results for CCOc1ccccc1C(N)=O ?
EPAC2 ant val: -18.3%

How did Cn1c(O)c(N=NC(N)=S)c2ccccc21 do in these assays?
EPAC2 ant val: 10.3%

Results for O=S(=O)(c1cccc2cnccc12)N1CCCNCC1 ?
EPAC2 ant val: -12.4%&-7.5%

How did c1ccc(CC2=NCCN2)cc1 do in these assays?
EPAC2 ant val: -13.2%

Results for C[C@@H](N)C1CCC(C(=O)Nc2ccncc2)CC1 (some centres undefined) ?
EPAC2 ant val: -13.7%

What do the screens show for `COC(=O)C1=CO[C@@H](O[C@H]2OC(CO)C(O)C(O)C2O)C2C1CC(O)C2C` (some centres undefined)?
EPAC2 ant val: -2.9%

How did CCN(CC)CCOC(=O)C1(c2ccccc2)CCCC1 do in these assays?
EPAC2 ant val: 7.9%

What do the screens show for `COc1ccccc1N1CCN(CCCNc2cc(=O)n(C)c(=O)n2C)CC1`?
EPAC2 ant val: inconclusive

How did c1ccc(CN(CC2=NCCN2)c2ccccc2)cc1 do in these assays?
EPAC2 ant val: -18.7%&-45.2%&-13.3%

How did CC(COc1ccccc1)NC(C)C(O)c1ccc(O)cc1 (centres undefined) do in these assays?
EPAC2 ant val: -4.2%

What do the screens show for `NC(N)=NCCC[C@H](N)C(=O)O`?
EPAC2 ant val: inconclusive

How did Cc1nc(-c2ccc(Cl)cc2)oc1COC(C)(C)C(=O)O do in these assays?
EPAC2 ant val: 28.8%

Results for CC(=O)C1CCC2C3CC(C)C4=CC(=O)CC[C@@]4(C)C3C(O)C[C@@]12C (some centres undefined) ?
EPAC2 ant val: -7.4%

What do the screens show for `O=C(c1ccc(F)cc1)C1CCN(CCn2c(=O)[nH]c3ccccc3c2=O)CC1`?
EPAC2 ant val: -8.7%&5.1%&-27.8%&11.1%

What do the screens show for `Cc1ccc(S(=O)(=O)NC(=O)NC2CCCCCCC2)cc1`?
EPAC2 ant val: -9.1%

What do the screens show for `CCOc1ccc(C(=O)OCCN(CC)CC)cc1`?
EPAC2 ant val: -22.2%

Results for CCCCC(O)c1ccccc1 (centres undefined) ?
EPAC2 ant val: 3.9%

What do the screens show for `C[C@]12CCC(=O)C=C1CC[C@@H]1[C@@H]2CC[C@@]2(C)[C@H]1CC[C@]2(O)C(=O)CO`?
EPAC2 ant val: -17.4%&-28.2%

Results for COc1cc(NS(=O)(=O)c2ccc(N)cc2)nc(C)n1 ?
EPAC2 ant val: 13.2%

What do the screens show for `Oc1ccc(/C=C/c2cc(O)cc(O)c2)cc1`?
EPAC2 ant val: 50.1µM*!

3 structures from above, arranged by molecular weight, highest first:
What do the screens show for `Cc1ccc(S(=O)(=O)NC(=O)NC2CCCCCCC2)cc1`?
EPAC2 ant val: -9.1%

How did CC(COc1ccccc1)NC(C)C(O)c1ccc(O)cc1 (centres undefined) do in these assays?
EPAC2 ant val: -4.2%

Results for CCCCC(O)c1ccccc1 (centres undefined) ?
EPAC2 ant val: 3.9%

Part of the list above in order of formula weight, ascending:
How did c1ccc(CC2=NCCN2)cc1 do in these assays?
EPAC2 ant val: -13.2%

What do the screens show for `NC(N)=NCCC[C@H](N)C(=O)O`?
EPAC2 ant val: inconclusive

What do the screens show for `Oc1ccc(/C=C/c2cc(O)cc(O)c2)cc1`?
EPAC2 ant val: 50.1µM*!

Results for C[C@@H](N)C1CCC(C(=O)Nc2ccncc2)CC1 (some centres undefined) ?
EPAC2 ant val: -13.7%

What do the screens show for `CCOc1ccc(C(=O)OCCN(CC)CC)cc1`?
EPAC2 ant val: -22.2%

How did CCN(CC)CCOC(=O)C1(c2ccccc2)CCCC1 do in these assays?
EPAC2 ant val: 7.9%

Results for O=S(=O)(c1cccc2cnccc12)N1CCCNCC1 ?
EPAC2 ant val: -12.4%&-7.5%

Results for COc1cc(NS(=O)(=O)c2ccc(N)cc2)nc(C)n1 ?
EPAC2 ant val: 13.2%

How did CC(COc1ccccc1)NC(C)C(O)c1ccc(O)cc1 (centres undefined) do in these assays?
EPAC2 ant val: -4.2%

How did Cc1nc(-c2ccc(Cl)cc2)oc1COC(C)(C)C(=O)O do in these assays?
EPAC2 ant val: 28.8%

Results for CC(=O)C1CCC2C3CC(C)C4=CC(=O)CC[C@@]4(C)C3C(O)C[C@@]12C (some centres undefined) ?
EPAC2 ant val: -7.4%

What do the screens show for `C[C@]12CCC(=O)C=C1CC[C@@H]1[C@@H]2CC[C@@]2(C)[C@H]1CC[C@]2(O)C(=O)CO`?
EPAC2 ant val: -17.4%&-28.2%

What do the screens show for `COc1ccccc1N1CCN(CCCNc2cc(=O)n(C)c(=O)n2C)CC1`?
EPAC2 ant val: inconclusive

What do the screens show for `COC(=O)C1=CO[C@@H](O[C@H]2OC(CO)C(O)C(O)C2O)C2C1CC(O)C2C` (some centres undefined)?
EPAC2 ant val: -2.9%

What do the screens show for `O=C(c1ccc(F)cc1)C1CCN(CCn2c(=O)[nH]c3ccccc3c2=O)CC1`?
EPAC2 ant val: -8.7%&5.1%&-27.8%&11.1%

Continued:
How did O=C(CS(=O)Cc1ccco1)NCC=CCOc1cc(CN2CCCCC2)ccn1 (centres undefined) do in these assays?
EPAC2 ant val: 17.8%

What do the screens show for `CC[N+](C)(CC)CCOC(=O)C(O)(c1ccccc1)C1CCCCC1` (centres undefined)?
EPAC2 ant val: -4.4%

Results for O=c1[nH]c2cc(C(F)(F)F)c(N3CCOCC3)cc2n(CP(=O)(O)O)c1=O ?
EPAC2 ant val: 10.0%

What do the screens show for `CC1(C)O[C@H]2CC(=O)OC[C@]23[C@H]2CC[C@@]4(C)[C@H](c5ccoc5)OC(=O)[C@H]5O[C@]54[C@]2(C)C(=O)C[C@@H]13`?
EPAC2 ant val: -25.7%

What do the screens show for `C[C@@H]1C[C@H]2C3C[C@H](F)C4=CC(=O)C=CC4(C)[C@@]3(F)[C@@H](O)CC2(C)[C@@]1(O)C(=O)COC(=O)C(C)(C)C` (some centres undefined)?
EPAC2 ant val: -2.1%

Results for COc1cc2c(cc1OC)C(=O)C(CC1CCN(Cc3ccccc3)CC1)C2 (centres undefined) ?
EPAC2 ant val: -9.8%

What do the screens show for `COc1cc(C(=O)OC(COCCC(C)C)CN2CCOCC2)cc(OC)c1OC` (centres undefined)?
EPAC2 ant val: inconclusive

How did CCCn1cnc2c1c(=O)n(CCCCC(C)=O)c(=O)n2C do in these assays?
EPAC2 ant val: 6.0%&5.9%

What do the screens show for `CCCCCCCCCCCCCCC[C@H](O)[C@H](N)CO`?
EPAC2 ant val: -4.7%
